Rce1 inh = yeast Ras-converting enzyme inhibition | Q03530 | yeast membranes, quenched prenylated peptide cleavage fluorescence | calls only | 290,000 tested, 0.27% active;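 active = fall in fluorescence gain of 50% or more versus controls, with final raw signal at or below 3038400; inconclusive = same 50% fall but final raw signal above 3038400; inactive = fall in fluorescence gain under 50%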;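 also: plate controls were neutral control wells for no effect and wells lacking membranes for full effect; tested at 10 µM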
Target sequence (Q03530 whole entry, looked up): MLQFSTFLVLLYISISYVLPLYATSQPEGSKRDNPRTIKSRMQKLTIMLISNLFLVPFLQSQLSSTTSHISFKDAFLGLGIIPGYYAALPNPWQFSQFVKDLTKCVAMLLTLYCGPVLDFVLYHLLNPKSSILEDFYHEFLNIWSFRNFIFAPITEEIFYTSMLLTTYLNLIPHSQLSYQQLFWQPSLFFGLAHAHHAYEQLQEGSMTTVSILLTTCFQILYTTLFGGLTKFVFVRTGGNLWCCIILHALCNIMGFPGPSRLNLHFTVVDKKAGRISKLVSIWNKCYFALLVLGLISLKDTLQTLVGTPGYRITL
UUG fidelity = alters start codon recognition fidelity in yeast | AID 602363 | S. cerevisiae UUG-firefly luciferase reporter, luminescence/redox ratio | 350,000 tested, 0.13% active | activity score, % at 18.7 µM;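 active = replicate mean at a twofold rise or more, about +100% in these data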;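 also: firefly luciferase made from a UUG start codon reports start codon fidelity; reporter light over untreated wells divided by growth signal over untreated wells; some hits fall short of that in this replicate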
MT1-MMP act inh = MT1-MMP (human) activation inhibition. P50281. HT1080 RFP-PRO-GFP cells, GFP/RFP ratio fluorescence, overnight; percent of plate control window, DMSO zero. GFP/RFP ratio change, % at 20 µM. 360,000 tested, 0.061% active;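 active = GFP/RFP ratio change of at least 30% with cell ATP level not reduced by more than half and red fluorescence within 50% of control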; also: strong numbers were not always called active
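Test system: HT1080 cells expressing an RFP-PRO-GFP fluorescent reporter construct / Compound dosing: single-point 20 µM compound, 1% DMSO / Schedule: cells overnight before dosing, compound overnight, 37 °C, 5% CO2 / Evaluation: GFP/RFP fluorescence ratio / Control set: DMSO and RFP-L50D-GFP cell wells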
PABP polyA inh = blocks human PABP binding to poly(A) RNA; P11940; fluorescence polarization; inhibition, % at 35 µM; 290,000 tested, 1% active; AID 2014;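 active = 50% or more with normal probe brightness, or confirmed in later tests; inconclusive = above 50% with abnormal brightness, or retests that disagree; inactive = below 50% or failed in later tests; about a fifth of its hits are not listed in these tables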;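 also: calls also rest on retests at 20 µM and on dose response follow-up; controls were probe without protein and protein plus probe with vehicle; some compounds called inactive have numbers as strong as hits; many hits fall short of the cut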
eIF4H inh = inhibitors of RNA binding by human eIF4H. Q15056. eIF4H fluorescence polarization binding assay. inhibition, % at 35 µM. 290,000 tested, 0.94% active;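 active = 50% or more with normal probe brightness, or confirmed in later tests; inconclusive = above 50% with abnormal brightness, or retests that disagree; inactive = below 50% or failed in later tests; about a fifth of its hits are not listed in these tables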;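 also: calls also rest on retests at 20 µM and on dose response follow-up; 0% = protein and probe with vehicle and 100% = probe without protein; strong numbers were not always called active; many hits fall short of the cut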
CSC inhib = blocks cancer stem cells. inhibition, % at 7.5 µM. AID 2717. 300,000 tested, 1.1% active. cancer stem cell-like cells viability, luminescence;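 active = mean at 75% or more and at least half the replicates too; inconclusive = mean and replicates disagree; tested in HMLE shEcad cells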;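 also: 0% = median of negative and 100% = median of positive control wells; the first replicate is given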
Env fusion inh = HIV envelope-mediated fusion inhibition; HeLa-JRFL Env/CEM21 cell fusion, luciferase; 360,000 tested, 1.1% active; AID 651610; inhibition, % at 12.3 µM;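 active = mean replicate inhibition score of at least 50 and every replicate individually at or above 50; inconclusive = only one of the two criteria met; inactive = mean below 50 and not all replicates reaching 50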;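 also: 0% = plate neutral controls and 100% = maraviroc near 300 nM; one replicate is shown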
eIF4H inh retest = recorded beside eIF4H inh, whose call it bears; inhibition, %; compound at 20 µM; confirmation average;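 mean of two retest wells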
PABP polyA inh retest = also measured in PABP polyA inh; calls as there; inhibition, %; compound at 20 µM; confirmation repeats;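 mean of two retest wells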
MT1-MMP act inh RFP = second read-out of MT1-MMP act inh, no call of its own (marks repeat the call); RFP signal change, %; measured here: RFP expression control read;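 0 = vehicle wells; hits needed this value within 50% of zero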
* = called active by the depositor; i = inactive; ? = inconclusive; . = not tested or not shown; & = joins results of further samples; [ ] = remark or other dose. This is a random part of the collection. Share with any hit: about 3%.

SMILES	Rce1 inh	UUG fidelity	MT1-MMP act inh	MT1-MMP act inh RFP	PABP polyA inh	eIF4H inh	CSC inhib	Env fusion inh	others
Cc1cccn2c(/C=N/OCc3cccc(F)c3)c(-c3ccc(Cl)cc3)nc12	i	-3	-5	-8	8	0	85*	.
COc1cc(C(=O)N[C@@H](C)C(=O)N2CCC3(CC2)NCCc2[nH]cnc23)cc(OC)c1OC	i	-15	4	5	.	.	-9	19
Cc1occc1-c1nnc(SCC(=O)NCCc2ccccc2)n1C(C)c1ccccc1 (stereo unspecified)	i	21	-1	-3	0	2	13	-57
Cc1ccc(C(=O)NNC(=O)OC(C)(C)C)c(Cl)c1	i	-4	3	2	8	3	7	.
NC(COCc1ccccc1)c1csc(NC(=O)Nc2cccc(Cl)c2)n1 (stereo unspecified)	.	-13	-1	-3	.	.	.	30
O=C(NCc1ccccc1)N(Cc1nc2ccccc2c(=O)[nH]1)C1CCCC1	.	-2	-4	-10	0	-20	-12	.
CC(C)CNS(=O)(=O)c1ccc(CCC(=O)NC2CCCC2)cc1	i	8	1	0	-1	3	-13	-35
O=c1oc(/C=C/c2ccco2)nc2sc3c(c12)CCC3	i	-9	-1	7	81*	73*	7	.	eIF4H inh retest=84*;PABP polyA inh retest=95*
Cc1ccc(OCc2ccc(C(=O)Nc3nccs3)o2)cc1C	i	-14	2	2	5	-5	.	6
C=CCn1c(SCC(=O)Nc2nc3ccccc3s2)nc(O)c(CC)c1=O	i	-25	0	0	30	58	22	9	eIF4H inh retest=-8;PABP polyA inh retest=12
O=C(NNC(=O)c1cc(C(F)(F)F)cc(C(F)(F)F)c1)c1ccc(Cl)cc1	i	-14	1	-5	-6	-3	3	0
O=C1N(Cc2cccc(Cl)c2)C[C@@H]2C[C@@H](c3ccccn3)N3CCC[C@@]123	i	-27	1	4	8	-1	0	1
CCN1CCN(C(c2cccs2)C(C)NC(=O)c2ccccc2)CC1 (stereo unspecified)	i	-21	-4	3	-3	2	-3	-443
Cc1csc2ncc(C(=O)N3c4ccccc4CC3C)c(=O)n12 (stereo unspecified)	i	-1	0	3	-15	1	-6	.
Nc1ccc(C(=O)N2N=C(c3ccc(F)cc3)CC2(O)C(F)(F)F)cc1 (stereo unspecified)	i	-12	0	2	5	-1	-5	-4

The closing three records of the section above are carried over, then new ones follow:
SMILES	Rce1 inh	UUG fidelity	MT1-MMP act inh	MT1-MMP act inh RFP	PABP polyA inh	eIF4H inh	CSC inhib	Env fusion inh	others
CCN1CCN(C(c2cccs2)C(C)NC(=O)c2ccccc2)CC1 (stereo unspecified)	i	-21	-4	3	-3	2	-3	-443
Cc1csc2ncc(C(=O)N3c4ccccc4CC3C)c(=O)n12 (stereo unspecified)	i	-1	0	3	-15	1	-6	.
Nc1ccc(C(=O)N2N=C(c3ccc(F)cc3)CC2(O)C(F)(F)F)cc1 (stereo unspecified)	i	-12	0	2	5	-1	-5	-4
CCOc1ccc(OCC)c(NC(=O)C2C3C=CC(O3)C2C(=O)O)c1 (stereo unspecified)	.	-11	-2	1	.	.	.	-21
COc1ccc(Cc2nc(N)nc(N)n2)cc1	i	0	7	8	7	-8	.	.
CC(C)CC1NC(=S)N(C2CCCCC2)C1=O (stereo unspecified)	i	-7	1	0	8	-1	-2	.
CC(/C=C/c1ccccc1F)=N\NC(=O)c1cccc(F)c1	i	.	6	4	-4	-1	.	-100
COCCCNC(=S)N/N=C/c1ccc(OC)c(Br)c1	i	.	-2	-4	0	-6	-10	-4
COc1cccc(NC(=O)NNC(=O)c2ccc3c(c2)NC(=O)C(C)(C)O3)c1	i	4	3	3	2	8	.	8
CC1CC(C)CN(S(=O)(=O)N2CCCC(C(=O)NCCCN3CCOCC3)C2)C1 (stereo unspecified)	i	.	-1	0	-15	-3	7	-1
Cc1c(NC(=O)CN2C(=O)NC3(CCCCC3)C2=O)c(=O)n(-c2ccccc2)n1C	i	-27	2	0	7	-4	-4	0
O=[N+]([O-])c1ccc2c(c1)C(O)n1ncnc1S2 (stereo unspecified)	i	.	1	3	-11	0	-3	11
CCNC(=S)NNC(=O)c1ccc(OC)cc1	.	-37	-5	7	-3	-4	-11	-1
Cc1ccc(/C=N/n2c(C)n[nH]c2=S)o1	i	-24	7	8	-6	3	0	-73
Cc1ccc(/C=N/NC(=O)Nc2ccccc2)o1	i	.	2	4	-3	-5	-5	-25
NS(=O)(=O)c1ccc(CCNC(=O)CNC(=O)c2ccccc2F)cc1	i	-5	-1	3	-5	-6	3	1
NC(=S)Nc1nccc(-c2cccs2)n1	i	-7	0	2	-10	0	11	-34
C=CCn1c(Oc2ccc(C(=O)OC)cc2)nc2c1c(=O)n(C)c(=O)n2C	i	-19	2	1	-7	-6	-2	.
COc1cc2c(c(OC)c1CC=C(C)C)C[C@H](c1ccc(O)cc1O)CO2	i	2	0	-5	.	.	-3	.
CN1CCN(C(=O)c2cc(Br)cn2C)CC1	i	3	5	0	-2	2	-5	2
CC(C)Oc1ccc(C(=O)Nc2cccc3cccnc23)cc1	i	-12	3	5	10	-11	-14	?
CCN(CC)C(=O)[C@H]1C[C@H](CC(=O)NC(C)(C)C)C(=O)N2CCc3c([nH]c4ccc(Cl)cc34)[C@]12C	.	-6	-7	-11	.	.	.	-9
CCNC(=O)Cn1c(=O)c(=O)n(Cc2ccccc2)c2ccc(Cl)cc21	i	-8	1	3	8	2	.	2
COc1cccc(CN2CCN(C(=O)c3cccc(OC)c3)CC2)c1	i	-5	0	4	2	63	-7	0	eIF4H inh retest=4;PABP polyA inh retest=4
O=C(C1=C[C@@H](c2ccc3c(c2)OCO3)C[C@@H](OCCCCO)O1)N1CCN(Cc2ccc3c(c2)OCO3)CC1	i	0&-15	0	-2	-3	3	-7	15[16.7 µM]
Cc1cc(C)n(C(=O)/C=C/c2cccs2)n1	i	-4	2	1	-2	1	4	0
O=C1CC(c2ccco2)CC2=C1C1c3ccccc3C(=O)N1c1ccccc1N2 (stereo unspecified)	i	-12	3	-4	10	-7	28	.
CC(NC(=O)COC(=O)C1CCN(c2ccc(C(F)(F)F)cn2)CC1)c1ccccc1 (stereo unspecified)	.	20	2	3	.	.	.	6
COc1cccc(CN(C(=O)c2ccccc2)C2CCS(=O)(=O)C2)c1 (stereo unspecified)	i	-2	-1	6	-5	-9	-2	3
COc1ccc(NC(=O)CCNS(=O)(=O)c2cc(Br)cnc2N)c(OC)c1	i	-13	1	5	.	.	1	-1
N#CCOC(=O)C1c2ccccc2Oc2ccccc21	i	-18	-3	2	-6	-16	-9	3
Cn1cc(CN2CCC(O)CC2)c(-c2ccc(Oc3ccccc3)cc2)n1	i	.	4	2	-10	-8	-6	6
CCCCN(CC)Cc1ccc(CNC(=O)Nc2ccc(Cl)cc2)o1	i	.	-6	-3	3	-2	30	10
O=C(CCCCCN1C(=O)c2ccccc2C1=O)Nc1ccccc1	i	-23	4	0	2	5	-19	.
CCOC(=O)C1CCCN(C(=O)c2oc3ccccc3c2C)CC1 (stereo unspecified)	.	-7	3	-2	.	.	.	-11
CC(=C/c1ccccc1)/C=N/NC(=O)c1ccccn1	i	-60	1	-6	6	0	12	-66
O=C(COc1ccc(Br)cc1Cl)Nn1cnnc1	i	.	3	6	-1	-4	-11	6
CCN(CC)C(=O)Cn1cc(S(=O)(=O)CC(=O)N2CCOCC2)c2ccccc21	i	5	3	3	-1	-6	-20	-27
C/C(=N\NC(=O)Cc1ccc(Cl)cc1)c1ccc(F)cc1	i	-23	1	-10	-2	-3	-7	11
CCCCCCCCCCCCC(=O)CCCCC(=O)O	i	-3	-3	-5	-3	6	-1	.
CN(C(=O)Cn1cnc2ccccc2c1=O)C1CCS(=O)(=O)C1 (stereo unspecified)	i	.	-4	1	.	.	8	13
O=C1CC(c2ccccc2)Cc2nc(NCc3ccco3)ncc21 (stereo unspecified)	i	-23	5	1	2	-7	1	12
O=C(NCC(c1cccnc1)N1CCOCC1)c1ccc2c(c1)OCO2 (stereo unspecified)	i	-13	11	-1	-3	2	-3	-38
CCN(CC)S(=O)(=O)c1cc(NC(=O)CSc2nnc(N)s2)ccc1C	.	-5	4	-1	.	.	-3	.
CC1CN(C(=S)Nc2ccc(Br)cc2)CC(C)O1 (stereo unspecified)	i	-16	6	1	-9	4	-9	13
O=C(NCCCN1CCOCC1)[C@@H]1CSC2c3ccccc3C(=O)N21 (stereo partly specified)	i	-41	1	2	-9	-3	-8	.
CCOC(=O)c1c(C2COc3ccccc3O2)csc1NC(=O)c1ccco1 (stereo unspecified)	i	26	-5	-5	5	2	12	9
COc1cccc(/C=C2\SC(=O)N(CCC(=O)N3CCC(C(=O)O)CC3)C2=O)c1	i	8	-5	-1	8	-10	-6	-26
O=C(CCS(=O)(=O)Cc1ccccc1)N1CCN(c2ccccc2)CC1	i	.	10	4	-3	-7	-4	-9
CC(Sc1ccsc1[N+](=O)[O-])C(=O)N1CCN(c2ccccn2)CC1 (stereo unspecified)	.	-19	1	-1	7	-6	-1	-22
COc1ccc(CCNS(=O)(=O)c2cccc3cccnc23)cc1OC	i	-20	-2	0	-9	-1	-3	-18
COc1ccc(-c2ccc(C(=O)NCC3CC3)c3occc23)c(C)c1	.	-36	0	-20	.	.	.	18
Cc1ccc(C)c(C(=O)Nc2ccncc2)c1	i	-15	-3	-8	-2	-13	-26	6
CCOc1ccc(-n2cc(-c3ccccc3)c3c(SC(C)C(=O)OC)ncnc32)cc1 (stereo unspecified)	i	-15	-2	-3	6	5	16	6
COC(=O)Nc1ccc(S(=O)(=O)N2c3ccccc3CCC2C)cc1 (stereo unspecified)	i	-11	-11	-14	5	6	145*	.
CCCCc1nnc(NC(=O)CSCc2cc(=O)n3cc(C)sc3n2)s1	i	-16	3	3	-12	12	1	-10
O=C(CSc1nnc(-c2ccncc2)n1Cc1ccco1)Nc1nc(-c2ccccc2)cs1	i	-11	-2	-12	-12	-10	14	33
O=C(CSc1nnnn1-c1ccccc1)N1CCCc2ccccc21	i	-11	-3	-9	3	13	-6	-23
COc1ccc(C2=NN(S(=O)(=O)c3ccccc3)C(c3ccccc3)C2)cc1 (stereo unspecified)	i	-15	-2	-3	-10	-1	-6	25
COc1ccc(C(CCNCc2ccc(OC(C)C)cc2)C(C)C)cc1 (stereo unspecified)	i	-3	1	-6	-1	-10	35	25
COc1ccc(/C(C)=N/NC(=O)c2ccc3nc[nH]c3c2)cc1	i	-21	0	2	-2	-1	-3	-7
O=C(Nc1ccc(Cl)cc1)C1CC(=O)n2c(nc3ccccc32)N1 (stereo unspecified)	i	.	6	6	0	-2	-8	.
O=S(=O)(c1ccc(SCc2ccc(Cl)cc2)nc1)N1CCCC1	.	-15	1	-11	.	.	12	?

Going on with the list.
SMILES	Rce1 inh	UUG fidelity	MT1-MMP act inh	MT1-MMP act inh RFP	PABP polyA inh	eIF4H inh	CSC inhib	Env fusion inh	others
CCOc1ccc(/C=N/NC(=O)C2(O)c3ccccc3-c3ccccc32)cc1	i	16	4	5	3	-5	-5	-21
Cc1cc(-c2nnc3n2N=C(c2ccc(-c4ccccc4)cc2)CS3)n[nH]1	i	-18	5	-7	-1	-12	7	.
O=C(COC(=O)C1CCC1)NCc1ccccc1	i	-14	9	5	.	.	-4	-7
Cc1ccc(CNC(=O)c2ccc3c(=O)c(O)c(-c4ccc(C)cc4)[nH]c3c2)cc1	i	-22	-14	-18	-9	-1	42	57*
CCCN(CCC)C(=O)c1ccc2nc(-c3ccc(OC)c(OC)c3)c(-c3ccc(OC)c(OC)c3)nc2c1	i	15	-4	-1	9	-4	-28	-4
